Marburg entry inh – blocks Marburg virus binding to or entry into cells | Marburg virus pseudotyped entry inhibition, cell reporter; control for the full effect not named in the record; about a third of the inactives were read at about 46 µM | Potency, µM (titrated, usually from 37.8 µM), for inactives: top-dose activity change, negative = inhibition, usual class: inhibitors | hit rate 1.8% among 300,000; active = well fitted inhibition curve with a large enough effect; inconclusive = small, poorly fitted or top-dose-only effect, or effect the other way; inactive = flat fitted curve, though single readings scatter; tested in HEK293 cells; about a fifth of its hits are not listed in these tables; note: % is set by controls: 0 for no effect and ±100 for the full control effect; luciferase read-out
RE007 growth inh – less growth of the S. pombe RE007 Vpr strain; S. pombe RE007 Vpr strain, BacTiter-Glo ATP luminescence, 24 h; control for the full effect not named in the record; Potency, µM (doses to about 92.2 µM), for the others: at the top dose activity change, negative = less growth; hit rate 0.21% among 360,000; AID 651644; active = well fitted falling curve with a large enough effect; inconclusive = small, poorly fitted or top-dose-only effect; inactive = no such curve, though single readings can be large or run the other way;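 note: % is set by controls: 0 for no effect and ±100 for the full control effect; nearly all actives have a fitted effect of over 50% in size; the assay follows cell death caused by Vpr and the record does not say whether a fall means rescue or toxicity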
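Fission yeast RE007 carrying one integrated HIV-1 vpr copy, seeded at OD 0.01 in PMG+AL medium with 23 nL pinned compound. Grown 24 h at 30 degrees; viability read by BacTiter-Glo luminescence after 5 min.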
2A StopGo – FMDV 2A StopGo reporter, luciferase signal; AID 1159524; human cells with a luciferase reporter of 2A StopGo recoding; control for the full effect not named in the record; hit rate 1.2% among 410,000; Potency, µM (top dose mostly 57.9 µM), for inactives: at the top dose signal change, negative = less light; active = well fitted falling curve with a large enough effect; inconclusive = small, poorly fitted or top-dose-only effect; inactive = no such curve, though single readings can be large or run the other way; tested in HEK293T cells; note: % is set by controls: 0 for no effect and ±100 for the full control effect; nearly all actives have a fitted effect of over 45% in size; luciferase light after 4 h
SARS PLP yeast – inhibitors of SARS-CoV papain-like protease in yeast. S. cerevisiae expressing SARS-CoV PLpro, growth rescue; control for the full effect not named in the record. hit rate 0.19% among 330,000. Potency, µM (series often up to 32.9 µM), without a hit: top-dose activity, positive = growth rescue; active means well fitted rising curve with a large enough effect; inconclusive means small, poorly fitted or top-dose-only effect; inactive means no such curve, though single readings can be large or run the other way; note: 0% is about no effect; nearly all actives have a fitted effect of over 55% in size; growth read by luminescence after 48 h
NS1 function inh – inhibitors of influenza NS1 protein function; S. cerevisiae slowed by influenza A NS1, growth recovery by OD600; Potency, µM (doses to about 46.1 µM), inactives show at the highest dose activity, positive = more growth; hit rate 0.4% among 270,000; active means well fitted rising curve with a large enough effect; inconclusive means small, poorly fitted or top-dose-only effect; inactive means no such curve, though single readings can be large or run the other way; note: nearly all actives have a fitted effect of over 50% in size
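Read-out: OD600 growth recovery of NS1-expressing budding yeast. Cells grown overnight at 30C in -URA glucose medium, washed, resuspended and diluted 1:100 in 2% galactose assay medium, pH 6.0. Same strain lacking NS1 served as positive control.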
Cruzain inh noDet – inhibitors of Trypanosoma cruzi cruzain without detergent; AID 1476; P25779; purified cruzain, Z-FR-AMC fluorescence, no detergent; Potency, µM, inactives show max response, negative = inhibition, most hits filed as inhibitors; hit rate 2.3% among 200,000;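 note: plate controls were enzyme without inhibitor for no effect and buffer without enzyme for full effect; nearly all actives have a fitted effect of over 40% in size; top concentration of the series not given in the record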
Target sequence (P25779 123-467 limits assumed): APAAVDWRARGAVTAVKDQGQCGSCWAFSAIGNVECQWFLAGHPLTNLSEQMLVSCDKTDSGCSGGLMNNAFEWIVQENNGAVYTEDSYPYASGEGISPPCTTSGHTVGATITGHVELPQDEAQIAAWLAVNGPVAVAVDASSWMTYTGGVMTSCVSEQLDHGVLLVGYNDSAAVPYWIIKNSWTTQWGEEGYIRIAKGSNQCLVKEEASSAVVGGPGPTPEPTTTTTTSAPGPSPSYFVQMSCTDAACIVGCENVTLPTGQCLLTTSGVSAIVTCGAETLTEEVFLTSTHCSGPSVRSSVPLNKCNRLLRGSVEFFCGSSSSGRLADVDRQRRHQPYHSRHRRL
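Purified cruzain at 1.5 nM, pre-incubated 15 min with compound at room temperature in 100 mM sodium acetate pH 5.5, 5 mM DTT, 0.00005% Triton X-100. Reaction started with 2 uM Z-FR-AMC; AMC fluorescence increase over 60 s gives rate.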
Cruzain Triton – blocks cruzain activity in presence of Triton detergent; AID 1478; hit rate 0.43% among 200,000; purified cruzain, Z-FR-AMC fluorescence, 0.01% Triton; P25779; Potency, µM, for inactives: max response, negative = inhibition, actives largely listed as inhibitors;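 note: plate controls were neutral wells for no effect and buffer without enzyme for full effect; nearly all actives have a fitted effect of over 40% in size; top concentration of the series not given in the record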
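In this qHTS format, compounds are incubated with 1.5 nM cruzain for 15 min at room temperature before 2 uM Z-FR-AMC is added. Release of AMC is followed at 360/450 nm, and progress is taken as the 60 s fluorescence difference.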
Lassa entry inh – Lassa virus entry inhibition; Lassa virus pseudotype entry inhibition, cell reporter; control for the full effect not named in the record; Potency, µM (series often up to 37.9 µM), inactives show at the top dose activity change, negative = inhibition, most hits filed as inhibitors; hit rate 1.2% among 300,000; active means well fitted inhibition curve with a large enough effect; inconclusive means small, poorly fitted or top-dose-only effect, or effect the other way; inactive means flat fitted curve, though single readings scatter; tested in HEK293 cells; note: % is set by controls: 0 for no effect and ±100 for the full control effect; nearly all actives have a fitted effect of over 50% in size; luciferase read-out
Active calls of the source: *; ? = inconclusive; / = no result given; & = joins results of further samples; [ ] = remark or other dose. Unless noted, calls come from the whole dose curve; as a rule, active = well fitted curve in the direction sought with a large enough effect; inconclusive = small, poorly fitted or top-dose-only effect, or another doubt; inactive = no such curve, though single readings can be large; an effect the other way counts as inactive or inconclusive. Potency is the fitted concentration of half-maximal effect. Rows are unselected; any-hit rate near 4.7%.

SMILES	Marburg entry inh	RE007 growth inh	2A StopGo	SARS PLP yeast	NS1 function inh	Cruzain inh noDet	Cruzain Triton	Lassa entry inh
Cc1nn(-c2ccccc2)c(N2CCCC2)c1/C=N/O	6%	9%	-20%	2%	0%	4%	-1.5%	-1%
CCOc1ccc(C(=O)NCC(=O)OCc2cc([N+](=O)[O-])cc3c2OCOC3)cc1OCC	16%	-1%	-19%	0%	/	/	/	8%
O=C(Nc1ccc2ncccc2c1)Nc1ccc2ncccc2c1	/	/	36%[activator]	-2%	1%&-107%	-3%	0.6%	/
CCOC(=O)c1cnc(SCC(=O)c2ccc(Cl)cc2)nc1N	10%[46.1 µM]	7%	12%	6%	-1%	-5%	-6.3%	-2%
CCCOc1ccc(CNC(=O)c2oc3ccc4c(c3c2C)C(=O)CC(C)(CC)O4)cc1 (stereo not given)	-1%[46.1 µM]	/	7%	/	/	-21%	-7.2%	?
COc1cc(NC2c3ccccc3C(=O)N2Cc2ccc3c(c2)OCO3)cc(OC)c1 (stereo not given)	12%[46.1 µM]	1%	11%	-1%	3%	/	/	-11%
CCOC(=O)c1nc(C)sc1-c1ccnn1S(=O)(=O)c1ccc(C)cc1	?	8%	-16%	-2%	3%	/	/	?
Cc1ccc(C(=O)N2CCN(c3ccc(NC(=O)c4cccs4)cc3)CC2)cc1	-16%	3%	?	2%	12%	/	/	-8%
Cc1ccc(NS(=O)(=O)c2cc(OCC(N)=O)c(C)cc2Cl)cc1	?	-22%	28%	-10%	-21%	-18%	1.1%	9%
CC1(C)Cc2ccccc2-c2nc(NCCCO)[nH]c(=O)c21	5%[46.1 µM]	1%	12%	1%	1%	/	/	3%
CC(C)(C)n1ncc2c(=O)n(CC(=O)N3CCCc4ccccc43)cnc21	7%	20%	1%	-1%	-5%	-5%	-4.7%	-1%
c1cncc(C(c2nnnn2C2CCCCC2)N2CCN3CCCC3C2)c1 (stereo not given)	1%[46.1 µM]	6%	-21%	-1%	7%	0%	-1.7%	6%
O=S(=O)(NCCN1CCOCC1)c1ccc(F)c(Cl)c1	-3%[46.1 µM]	-13%	-4%	2%	2%	/	/	0%[46.1 µM]
O=C(c1ccc2c(c1)OCO2)C1CCCN(Cc2cn[nH]c2-c2cccc(F)c2)C1 (stereo not given)	?	-14%	-25%	0%	0%	/	/	1%
CC1(C)CC(NC(=O)c2cccc(F)c2)CC(C)(C)N1	-2%[46.1 µM]	-4%	-1%	0%	2%	/	/	8%[46.1 µM]
O=C(c1cc(COc2ccc(F)cc2F)on1)N1CCCC(c2ccccc2)C1 (stereo not given)	?	-2%	14%	1%	6%	/	/	7.1µM*
CCN(CC)C(=O)c1ccc(-c2cccs2)s1	?	-11%	67%[activator]	-2%	-36%	/	/	?
Cc1cccc(N(C(=O)CNC(=O)c2ccco2)C(C(=O)NC2CCCC2)c2cccnc2)c1 (stereo not given)	0%&-17%	6%	9%	-2%	-10%	6%	4.2%	16%
CCOC(=O)c1cc(C#N)c(Oc2ccccc2OC)nc1-c1ccccc1	?	2%	0%	-2%	13%	-12%	-0.7%	?
Cc1ccc(NC(=O)COC(=O)/C=C/c2cccs2)cc1	25%	9%	-3%	2%	8%	-8%	0.1%	9%
CCN(CC(=O)Nc1ccc(S(=O)(=O)N2CCCC2)cc1)Cc1ccccc1	?	12%	18%	2%	/	/	/	-3%[46.1 µM]
CN(c1ccc(OCC(=O)OCC(=O)NC2CCCC2)cc1)S(=O)(=O)c1ccc2ccccc2c1	0%[46.1 µM]	9%	5%	0%	/	/	/	-1%[46.1 µM]
Cc1cc(Br)ccc1NC(=O)CNC(=O)Cn1ncc(Cl)c(Cl)c1=O	-26%[46.1 µM]	-6%	6.3µM*	0%	1%	/	/	/
Cc1ccc(-n2c(O)c(C=NCC3CCCO3)c(=O)[nH]c2=O)c(C)c1 (stereo not given)	-4%[46.1 µM]	4%	-3%	0%	-1%	/	/	-6%[46.1 µM]
COc1ccc(N2CCN(C(=O)c3ccccc3N(C)S(=O)(=O)c3ccc(C)cc3)CC2)cc1	-3%	7%	29%	-4%	-2%	/	/	-24%
Cc1cn(C)c(CC(=O)NCc2ccc(F)cc2)c1C(=O)O	/	/	-15%	/	/	-6%	1.9%	?
CC(C)CNC(=O)COC(=O)c1cc(Cl)cc(Cl)c1N	-4%	22%	-6%	-2%	-14%	2%	-8.2%	-26%
O=C(N/N=C/c1cccc([N+](=O)[O-])c1)c1ccc(COc2ccccc2-c2ccccc2)cc1	-23%	-16%	-17%	25%	13%	20µM*	-6.6%	-17%
Cn1cccc1-c1nc2ccc(NC(=O)c3cccs3)cc2[nH]1	?	-5%	?	-11%	-8%	-7%	-7.5%	?
O=C(O)CCCNC(=O)CC1S/C(=N/N=C/c2ccccc2O)NC1=O (stereo not given)	/	12%	-6%	28%	3%	/	/	/
O=C(CSc1ccc(Cl)cc1)N1CCN(c2ncc(C(F)(F)F)cc2Cl)CC1	?	0%	?	-10%	-41%	-4%	-4.1%	4%
Clc1ccccc1CN1CCN(c2ncccn2)CC1	-1%	7%	-17%	-1%	-6%	/	/	3%
Cc1ccc(C(C(=O)NC2CCCC2)N(Cc2cccnc2)C(=O)c2snc(C(N)=O)c2N)o1 (stereo not given)	-1%&12%	-11%	-7%	2%	-9%	-7%	-0.3%	-1%
Cc1ccc(NC(=O)N(Cc2cccnc2)Cc2ccco2)cc1C	?	-7%	-19%	-1%	-9%	-5%	1.9%	?
CCOc1ccccc1NC(=S)NC(=O)CCCOc1ccc(Cl)cc1Cl	?	24%	/	-2%	-3%	20µM*	-2.4%	-11%
COC(=O)CSc1nnc(-c2ccc(S(=O)(=O)N3CCC(C)CC3)cc2)o1	3%	8%	4%	-7%	-11%	29%	1.3%	15%
Cc1cc(N2CCN(S(=O)(=O)c3ccc(C)c(C)c3)CC2)c2ccccc2n1	16µM*	-5%	-40%	-9%	-12%	1%	-2.0%	-17%
COc1ccc(CC(=O)NNC(=O)c2ccncc2)cc1	?	-8%	-1%	5%	/	/	/	?
CC(C)C[C@@H](C(=O)N[C@@H](C(=O)O)c1ccccc1)N1C(=O)N2CCc3c([nH]c4ccccc34)[C@@]2(C)C1=O	/	-23%	-23%	2%	?	/	/	/
Cn1c(-c2ccc(Cl)cc2)ccc(C#N)c1=O	-1%	4%	-11%	-10%	1%	?	-2.7%	-2%
CCCOc1cccc(C2C(C(=O)c3ccco3)=C(O)C(=O)N2c2nnc(C)s2)c1 (stereo not given)	7%[46.1 µM]	1%	-10%	1%	5%	/	/	2%[46.1 µM]
CCOC(=O)CSc1nnc(CSc2nc3sc4c(c3c(=O)[nH]2)CCC4)n1-c1ccccc1	1%	3%	-24%	0%	7%	?	-2.3%	0%
N=c1n(CCO)c2ccccc2n1Cc1ccccc1Cl	?	3%	-5%	11%	-10%	-9%	4.3%	?
CC(=O)NCC(=O)N(c1c(C)n(C)n(-c2ccccc2)c1=O)C1(C(=O)NC2CCCC2)CCCCC1	?	-7%	-17%	1%	2%	5%	6.4%	1%
CSc1nsc(SCC(=O)Nc2ccccc2C(N)=O)n1	-9%[46.1 µM]	-14%	6%	1%	0%	/	/	/
CCN(CC)CCCNC(=O)c1cc(-c2ccc3c(c2)OCO3)on1	?	-18%	0%	2%	6%	/	/	7%[46.1 µM]
CCOC(=O)C1(Cc2ccccc2)CCN(Cc2ccon2)CC1	-12%[46.1 µM]	3%	-9%	0%	2%	/	/	-4%[46.1 µM]
OC(CNCCc1ccc(C(F)(F)F)cc1)COc1cccc2ccccc12 (stereo not given)	?	-8%	?	-28%	-49%	-12%	-2.4%	?
O=C(CSc1nnc2ccccn12)NNC(=O)c1cccc(Cl)c1	-6%	-9%	9%	6%	/	/	/	26%
CCOc1ccccc1Nc1nc2ccccc2n1C(C)C	-5%[46.1 µM]	-22%	-19%	0%	4%	/	/	?
CC1CCCN(c2nc3c(c(=O)n(C)c(=O)n3C)n2CCSc2nc3ccccc3s2)C1 (stereo not given)	?	25%	?	-6%	/	?	-3.6%	?
Cc1nn(C(=O)c2cccc(F)c2)c(C)c1S(=O)(=O)N1CCCCCC1	/	/	-1%	/	/	-1%	-0.7%	-3%[46.1 µM]
COc1cccc(C(=O)Nc2nnc(S(=O)(=O)N(C)c3ccccc3)s2)c1	/	-9%	-12%	4%	-1%	/	/	/
Cc1ccc(COc2cccc(/C=N/NC(=O)c3nnn(-c4nonc4N)c3C)c2)cc1	/	-14%	5%	22%	7%	/	/	/
Cc1coc2cc3oc(=O)c(CC(=O)N4CCCCC4)c(C)c3cc12	-2%[46.1 µM]	/	-7%	/	/	1%	1.3%	1%[46.1 µM]
Cc1ccsc1C(=O)C1CCCN(Cc2cnc(N)nc2)C1 (stereo not given)	?	-6%	-20%	-1%	1%	/	/	12%[46.1 µM]
Cc1cccc(NC(=S)N2CCN(c3ccccc3F)CC2)c1C	/	19%	-9%	0%	0%	/	/	/
Cc1c(C(c2ccc(O)cc2)c2c(O)c3ccccc3oc2=O)c(=O)n(-c2ccccc2)n1C (stereo not given)	24%[46.1 µM]	-15%	10%&9%	25%	?	12%&11%	-10%&-10.0%	22%[46.1 µM]
CC(C)(C)OC(=O)N1CCN(c2ccc(NC(=O)Cn3nnc(-c4ccccc4)n3)cc2)CC1	-5%	7%	-4%	22%	?	-14%	-0.8%	-10%
CN(Cc1ccccc1)C1(CNC(=O)CCC(F)(F)F)Cc2ccccc2C1	-45%	-11%	6%	8%	13%	/	/	-1%
N#Cc1ccccc1NC(=O)Nc1cccs1	-1%	4%	14%	6%	3%	-13%	-0.4%	3%
COc1cccc(CNC(=O)c2nnn(CC(=O)Nc3ccc(C)c(C)c3)c2N)c1	1%&1%	-3%	-17%	1%	-5%	?	2.6%	-29%

Assay outcomes deposited in PubChem BioAssay by National Center for Advancing Translational Sciences (NCATS).
